Screening data from PubChem.
GIV Gai3 FP – inhibitors of GIV GBA-motif binding to rat Galpha-i3. Galpha-i3/FITC-GIV peptide fluorescence polarization, 90 min; hits give low values; scaled: aluminum fluoride 0%, vehicle 100%. percent of control (FP), % (concentration not given with the values). hit rate 0.42% among 210,000. AID 1224905;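 active = replicate mean at 85% of control or lower, very high polarization wells dropped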;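 also: wells of about 15 µL received 100 nL stock; the first replicate is given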
Target sequence (P08753 whole entry, looked up): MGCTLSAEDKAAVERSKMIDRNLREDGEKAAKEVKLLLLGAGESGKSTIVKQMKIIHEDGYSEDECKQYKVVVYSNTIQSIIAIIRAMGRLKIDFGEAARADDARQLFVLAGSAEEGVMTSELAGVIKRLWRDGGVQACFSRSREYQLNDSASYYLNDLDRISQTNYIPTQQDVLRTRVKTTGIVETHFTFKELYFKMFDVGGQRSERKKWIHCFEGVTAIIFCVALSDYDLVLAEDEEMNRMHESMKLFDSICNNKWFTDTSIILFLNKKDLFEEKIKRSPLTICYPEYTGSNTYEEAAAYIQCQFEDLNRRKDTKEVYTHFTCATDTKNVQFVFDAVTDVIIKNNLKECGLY
HCMV UL50-53 inh – disrupts HCMV UL50-UL53 complex binding; HTRF UL50-UL53 interaction, normalized percent inhibition; inhibition, % (concentration not given with the values); hit rate 0.15% among 190,000; AID 1918969;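 active = both replicates at 50% or more, plus weaker picks with an unusually low signal ratio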;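 also: stock transfer was 100 nL into about 20 µL; 0% = negative control wells and 100% = wells with untagged competitor protein; inactives centre near -12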
Sa growth inh – inhibitors of Staphylococcus aureus growth at 42 °C. S. aureus RN4220 growth, OD600, 20 h; hits give low values. relative growth, % (concentration not given with the values). hit rate 0.53% among 170,000. AID 720641;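 active = growth at 42 °C up to 50% and 20 or more points under that at 30 °C, or under 10% at both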;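 also: 300 nL library stock went into each well; scaled to the means of positive and negative controls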
Sa growth inh second temp – further read-out of Sa growth inh, marked with its call; relative growth, %; measured here: growth at 30 °C;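 optical density after 20 h as mean of two plates; 100% = untreated growth and lower means inhibition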
* = called active by the depositor; · = not tested or not shown; & = joins results of further samples.

SMILES | GIV Gai3 FP | HCMV UL50-53 inh | Sa growth inh | Sa growth inh second temp
COc1cccc(NC(=O)N2CCC(n3cnc4cccnc43)CC2)c1 | 98 | 8 | · | ·
Cc1ccc(CN(C)C(=O)C2CC(=O)N(c3ccc4c(c3)OCCO4)C2)o1 (stereo not drawn) | · | -6 | 94 | 94
O=C(CSc1nc2cc(Cl)ccc2s1)NC1CCS(=O)(=O)C1 (stereo not drawn) | · | -33 | 86 | 86
CC(C)n1c(CCC(=O)O)ccc1-c1ccc(Br)cc1 | 97 | 2 | 75 | 57
c1ccn2c(c1)nc1nc3nonc3nc12 | 97 | -51 | 76 | 52
CCC(=O)Nc1nc(-c2ccc(C)c(C)c2)cs1 | 103 | -7 | 123 | 93
O=C(CN1C(=O)C2CCCC2=Nc2ccccc21)Nc1ccc2c(c1)OCO2 (stereo not drawn) | 103 | 12 | · | ·
COc1cccc(N2C(=O)C(CC(=O)Nc3ccc(Cl)cc3)N(Cc3ccc4c(c3)OCO4)C2=O)c1 (stereo not drawn) | 95 | -38 | 95 | 89
COCCN1Cc2cccc(C(=O)N3CCN(c4cccc(C)c4)C(C)C3)c2C1=O (stereo not drawn) | 99 | -23 | 101 | 83
Cc1ccc(CC(C#N)C(N)=C(C#N)C#N)cc1 (stereo not drawn) | · | -10 | 93 | 83
Cc1ccc2[nH]c(CSc3nnc(NC(=O)COc4ccccc4F)s3)cc(=O)c2c1 | 100 | · | 109 | 99
O=C1/C(=C/C2=Cc3ccccc3OC2)SC(=S)N1C1CCS(=O)(=O)C1 (stereo not drawn) | -35* | -48 | 114 | 103
O=C(c1ccccc1Br)N1CCc2nc(-c3ccccc3)sc2C1 | 100 | -10 | · | ·
Cn1c(C(C#N)C(=O)c2ccc(C(C)(C)C)cc2)nc2ccccc21 (stereo not drawn) | · | 0 | 77 | 89
COc1ccc(CNC(=O)CSCc2nc(-c3ccccc3C)oc2C)cc1 | 108 | 8 | 97 | 85
O=C(Cn1cnc2c(oc3ccccc32)c1=O)Oc1ccccc1Cl | · | -7 | 109 | 91
OC(Cn1ccc2ccccc21)Cn1cnc2ccccc21 (stereo not drawn) | 100 | · | 86 | 55
CC(C)CNC(=S)N1CCC(c2nc(-c3ccc(F)cc3)no2)CC1 | 105 | -1 | 102 | 73
O=S(=O)(c1ccc(Cl)cc1)N1CCC(n2cccc2)CC1 | 100 | -22 | 91 | 87
CCn1c(=O)c2ccccc2n(CC(=O)N2CCCCC2C)c1=O (stereo not drawn) | 100 | -6 | 109 | 90
CCN(Cc1nc(-c2ccc(C)cc2)no1)C(=O)NC(C)(C)C | 95 | -4 | 91 | 98
CC(C)NC(=O)c1ccccc1N | 101 | -9 | 106 | 98
O=C(O)C1CCN(/C=C/C(=O)C(F)(F)F)CC1 | · | -14 | 105 | 98
Cc1ccc2nsnc2c1NC(=O)c1cccc(Cl)c1 | 100 | -6 | 83 | 93
O=c1cc(-c2ccccc2)oc2cc(O)cc(O)c12 | 103 | -7&-10&-7 | · | ·
CCOc1ccc(CCNC(=O)c2cc3c(C)nc4ccccc4c3o2)cc1OCC | 99 | · | 98 | 81
COc1ccc(CNC(=O)C2CCN(c3nc4ccccc4[nH]3)CC2)c(OC)c1 | 106 | · | 107 | 99
Cc1ccc(S(=O)(=O)NCCC(=O)Oc2cc3oc(=O)c4c(c3cc2Cl)CCCC4)cc1 | · | -38 | 98 | 86
CC(C(=O)N(C)C)N1C(=O)CCCc2ccccc21 (stereo not drawn) | 106 | -8 | · | ·
CCNS(=O)(=O)c1c(C)[nH]c(C(=O)OCC)c1C | 108 | -18 | · | ·
CCS(=O)(=O)N1CCc2cc(C(=O)NCCc3ccc(OC)c(OC)c3)ccc21 | 104 | -12 | 100 | 97
Cc1oc2ccc(NS(=O)(=O)c3ccccc3)cc2c1C(=O)O | 95 | · | 118 | 86
CCc1nn(CC(=O)NC(C)CCc2ccccc2)c(=O)c2cc3cc(F)ccc3n12 (stereo not drawn) | 104 | -47 | 107 | 84
Cc1cc2c(cc1C)NC(CC(=O)Nc1ccccc1)C(=O)N2 (stereo not drawn) | 104 | -45 | 106 | 89
O=C1CC(c2ccccc2)C(=O)N1c1cc(Cl)cc(Cl)c1 (stereo not drawn) | 103 | -33 | 96 | 80
O=C(NC1CC1)C1CCCN(c2ccnc(-c3ccccc3)n2)C1 (stereo not drawn) | 102 | 12 | · | ·
CC1(C)CS(=O)(=O)N(c2ccc(C(=O)N3CCCC3)cc2)C1=O | 101 | -22 | · | ·
C=CCn1c(=O)c(=O)n(Cc2ccc(C(=O)NCc3ccc(CC)cc3)cc2)c2ccccc21 | 102 | 5 | · | ·
CCCCCn1c(=O)[nH]c2cc(C(=O)NCc3ccc(Cl)cc3)ccc2c1=O | 108 | -18 | 97 | 90
FC(F)(F)Oc1ccc(-n2nnnc2SCCN2CCCCC2)cc1 | · | -30 | 100 | 88

Exported with values under each structure: entries from further up.
Order of results: GIV Gai3 FP, HCMV UL50-53 inh, Sa growth inh, Sa growth inh second temp
Cc1ccc2nsnc2c1NC(=O)c1cccc(Cl)c1
 : 100, -6, 83, 93
O=c1cc(-c2ccccc2)oc2cc(O)cc(O)c12
 : 103, -7&-10&-7, ·, ·
CCOc1ccc(CCNC(=O)c2cc3c(C)nc4ccccc4c3o2)cc1OCC
 : 99, ·, 98, 81
COc1ccc(CNC(=O)C2CCN(c3nc4ccccc4[nH]3)CC2)c(OC)c1
 : 106, ·, 107, 99
Cc1ccc(S(=O)(=O)NCCC(=O)Oc2cc3oc(=O)c4c(c3cc2Cl)CCCC4)cc1
 : ·, -38, 98, 86
CC(C(=O)N(C)C)N1C(=O)CCCc2ccccc21 (stereo not drawn)
 : 106, -8, ·, ·
CCNS(=O)(=O)c1c(C)[nH]c(C(=O)OCC)c1C
 : 108, -18, ·, ·
CCS(=O)(=O)N1CCc2cc(C(=O)NCCc3ccc(OC)c(OC)c3)ccc21
 : 104, -12, 100, 97
Cc1oc2ccc(NS(=O)(=O)c3ccccc3)cc2c1C(=O)O
 : 95, ·, 118, 86
CCc1nn(CC(=O)NC(C)CCc2ccccc2)c(=O)c2cc3cc(F)ccc3n12 (stereo not drawn)
 : 104, -47, 107, 84
Cc1cc2c(cc1C)NC(CC(=O)Nc1ccccc1)C(=O)N2 (stereo not drawn)
 : 104, -45, 106, 89
O=C1CC(c2ccccc2)C(=O)N1c1cc(Cl)cc(Cl)c1 (stereo not drawn)
 : 103, -33, 96, 80
O=C(NC1CC1)C1CCCN(c2ccnc(-c3ccccc3)n2)C1 (stereo not drawn)
 : 102, 12, ·, ·
CC1(C)CS(=O)(=O)N(c2ccc(C(=O)N3CCCC3)cc2)C1=O
 : 101, -22, ·, ·

The list goes on.
SMILES | GIV Gai3 FP | HCMV UL50-53 inh | Sa growth inh | Sa growth inh second temp
CCc1cc(=O)oc2c3c(ccc12)OCN(Cc1ccccc1)C3 | 104 | -43 | 107 | 85
COc1ccc(Br)cc1C1C(C(=O)Nc2ccc(C)cc2C)=C(C)Nc2ncnn21 (stereo not drawn) | 100 | -12 | 102 | 85
CC(=O)Nc1cccc(NC(=O)CSc2ncc(C(=O)Nc3ccccc3)c(=O)n2C)c1 | 105 | -38 | 90 | 81
Fc1ccc(CNc2cc(-c3ccccc3)nc3nncn23)cc1 | 102 | -23 | 107 | 30
O=c1[nH]c(=S)[nH]c2c1CCCC2 | 102 | -5 | 104 | 98
CCN=C1NC(=O)C(CC(=O)Nc2ccc(Oc3ccccc3)cc2)S1 (stereo not drawn) | · | -10 | 97 | 94
CC1(C)Cc2cccc(C(=O)NCc3ccco3)c2O1 | 100 | 3 | 90 | 97
Cc1ccc2c(c1)C(=O)OC(C(=O)Nc1ccccc1C(=O)O)C2 (stereo not drawn) | 107 | · | 121 | 99
COC(=O)c1ccc(C(=O)OC)c(NC(=O)c2cc(-c3ccc(C)cc3)nc3ccccc23)c1 | 108 | -10 | · | ·
Cc1ccc(-n2c(=O)c3c(cnn3C)n(Cc3ccccc3F)c2=O)cc1 | 95 | 12 | 100 | 94
CCC1Oc2cc(S(=O)(=O)N3CCCC(C(=O)N4CCCC4)C3)c(C)cc2NC1=O (stereo not drawn) | 106 | -17 | · | ·
O=C(Nc1ccc(SC(F)F)cc1)c1cc(-c2cccs2)on1 | 100 | -17 | 106 | 92
CCOc1ccc(CNC(=O)c2ccc(Sc3ccc(Cl)cc3)c(NC(C)=O)c2)cc1OC | 94 | · | 87 | 89
O=C(COC(=O)C1COc2ccccc2O1)c1ccccc1 (stereo not drawn) | · | -5 | 85 | 94
CCOc1ccc(C2=CSC3=NCCN23)cc1Cl | 105 | -8 | 99 | 63
Cc1ccc2c(c1)CN1CN2Cc2cc(C)ccc21 | 109 | 4 | 99 | 103
CCn1c2ccccc2c2cc(NC(=O)C(C)N3CC(C)OC(C)C3)ccc21 (stereo not drawn) | · | -22 | 98 | 82
O=S(=O)(NCC(c1ccccc1)S(=O)(=O)c1cccs1)c1cccs1 (stereo not drawn) | 101 | -10 | · | ·
CC(=O)Nc1ccc(S(=O)(=O)Nc2cccc(-c3ccc(N4CCC(C)CC4)nn3)c2)cc1 | 112 | · | 122 | 101
CC1CCN(S(=O)(=O)c2cccc(C(=O)N(C)C3(C)CCS(=O)(=O)C3)c2)CC1 (stereo not drawn) | 101 | · | 111 | 90
CC1CCN(CC(=O)Nc2ccc(C(=O)O)cc2)CC1 | 98 | -6 | 90 | 100
COCCn1c(=NC(=O)CCOc2ccccc2)sc2cc(OC)ccc21 | 105 | -29 | 94 | 94
O=C(/C=C/c1ccccc1)Nc1cccnc1Oc1ccc(F)cc1 | 101 | -12 | 88 | 85
Cc1cccc(C)c1Nc1c(-c2ccccc2O)nc2ncccn12 | 106 | -10 | 100 | 86
CN1CCC(OC(c2ccccc2)c2ccccc2)CC1 | · | 0&-24 | 97 | 93
COc1ccc(N2CC(NC(=O)c3cccs3)CC2=O)cc1 (stereo not drawn) | 97 | · | 113 | 84
Cn1nccc1C(=O)Nc1ccc(Cl)cc1 | 103 | · | 110 | 90
O=C(NC1CCCC1)C1CCCN(C(=O)c2cc(-c3ccncc3)n[nH]2)C1 (stereo not drawn) | 103 | -14 | · | ·
COc1ccccc1CNc1nc2c(-c3ccccc3)nnn2c2ccccc12 | 106 | 0 | · | ·
Cc1ccc(-c2cc(=O)c(=O)[nH][nH]2)cc1 | 108 | -15 | 97 | 91
O=C(NNc1ncccc1-n1cccc1)Nc1ccc(OC(F)(F)F)cc1 | 103 | -32 | 110 | 94
COCCNC(=O)c1ccc2c(=O)n(CCc3ccccc3)c(SCC(=O)CC(=O)OC)nc2c1 | 107 | · | 86 | 82
CN(C)c1ccc(C(CNS(=O)(=O)c2ccc3c(c2)CCCC3)N2CCOCC2)cc1 (stereo not drawn) | 96 | -12 | · | ·
CCCCn1cc(S(=O)(=O)c2ccc(Cl)cc2)c(=O)c2cc(F)c(N3CCCC(C)C3)cc21 (stereo not drawn) | 110 | · | 87 | 81
CCc1cc(=O)oc2c(C)c(OC3CCCCC3=O)ccc12 (stereo not drawn) | 98 | -2 | 110 | 89
O=C(NCc1ccccc1Cl)C(=O)NCC(c1cccs1)S(=O)(=O)c1ccccc1 (stereo not drawn) | 94 | · | 125 | 98
Cc1ccc(CN2c3ccccc3-c3nc(SCC(=O)Nc4ccc(C)cc4)ncc3S2(=O)=O)cc1 | 111 | 5 | · | ·
CCOC(=O)c1cccc(NC(=O)c2cc3c(=O)n(Cc4ccccc4)ccc3nc2C)c1 | 107 | · | 102 | 82
COc1ccc(CCNC(=O)c2ccc(CN3CCCn4nc(C)cc43)cc2)cc1OC | 102 | 0 | · | ·
COc1ccc(CCN(C)C(=O)Cn2nnc(-c3ccccc3Br)n2)cc1OC | · | -17 | 92 | 89
O=C1CN(C2CCS(=O)(=O)C2)C(=S)N1c1ccccc1 (stereo not drawn) | · | -18 | 80 | 94
N#Cc1cn(CC(=O)NCc2ccccc2)c2ccccc12 | 105 | -21 | 103 | 84
CC(C)C(=O)Nc1nnc(Sc2nc3c(c(=O)n(C)c(=O)n3C)n2C)s1 | 103 | 12 | · | ·
O=C(CNC(=O)c1cc(N2CCOCC2)ccn1)Nc1ccc(F)c(F)c1F | · | -2 | 102 | 91
Cc1nonc1C(=O)N/N=C/c1ccccc1 | 111 | -37 | 75 | 110
Cc1c(C(=O)N(C)c2ccccc2)sc2nc3n(c(=O)c12)CCCC3 | 97 | · | 91 | 85
CC(C)Oc1ccc(CNC(=O)c2ccccc2NC(=O)c2nsc3ccccc23)cc1 | 102 | · | 81 | 96
COc1cc(=O)n(-c2ccccc2)nc1C(=O)NC(c1ccccc1)c1ccccc1 | 97 | -11 | · | ·
COCCCNC(=O)C1CCN(c2cc(C)nc3c(-c4ccc(Cl)cc4)c(C)nn23)CC1 | 105 | -32 | 98 | 91
Cn1cc(C(=O)NCCN2CCN(c3ccccc3F)CC2)c2c3ccccc3n(C)c2c1=O | 99 | -11 | · | ·
(further entries)
SMILES | GIV Gai3 FP | HCMV UL50-53 inh | Sa growth inh | Sa growth inh second temp
Cn1c(=O)oc2cc(S(=O)(=O)CCC(=O)NCCc3ccc(Cl)cc3)ccc21 | 109 | · | 96 | 96
Cc1ccc(C(=O)N2CCc3cc4cc(C)ccc4nc32)cc1 | 109 | -16 | · | ·
CCC1CN(C(=O)NCc2ccc(C)cc2)c2cc(C)ccc2O1 (stereo not drawn) | 100 | -6 | 91 | 108
COC(=O)c1ccc(OC)c(Cn2c(=O)n(Cc3ccccc3)c(=O)c3c2c2cc(OC)ccc2n3C)c1 | 102 | -10 | 105 | 85
